TRPV1 PAM: enhances activation of the human vanilloid receptor TRPV1 | Q8NER1 | TRPV1-expressing cells, Fluo-8 calcium influx, capsaicin EC20 potentiation; host cell line not named in the record; control for the full effect not named in the record | potentiation, % at 8.33 µM | actives 0.02% (n = 320,000) | AID 540277; active means potentiation above 80%; inconclusive means 30% to 80%; inactive means below 30%; note: 0% is about no effect
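Fluo-8 calcium influx in TRPV1-expressing cells, kinetic read (ex 480/em 520 nm). Compound added and read 3 min for agonist activity, followed by capsaicin at EC20 final and 2 min further read for enhancement.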
TRPML1 agonist: human mucolipin-1 channel agonism; actives 0.12% (n = 410,000); AID 624414; Q9GZU1; TRPML1-expressing cells, Ca2+ dye fluorescence, FDSS; host cell line not named in the record; reference of the full effect not given here; activation, % (test concentration not listed); in the data active = activation above about 50%; inconclusive = about 30% to 50%; inactive = below about 30%; note: 0% is about no effect; the text of the record puts the active cut at 80%
Target sequence (Q9GZU1 whole entry, looked up): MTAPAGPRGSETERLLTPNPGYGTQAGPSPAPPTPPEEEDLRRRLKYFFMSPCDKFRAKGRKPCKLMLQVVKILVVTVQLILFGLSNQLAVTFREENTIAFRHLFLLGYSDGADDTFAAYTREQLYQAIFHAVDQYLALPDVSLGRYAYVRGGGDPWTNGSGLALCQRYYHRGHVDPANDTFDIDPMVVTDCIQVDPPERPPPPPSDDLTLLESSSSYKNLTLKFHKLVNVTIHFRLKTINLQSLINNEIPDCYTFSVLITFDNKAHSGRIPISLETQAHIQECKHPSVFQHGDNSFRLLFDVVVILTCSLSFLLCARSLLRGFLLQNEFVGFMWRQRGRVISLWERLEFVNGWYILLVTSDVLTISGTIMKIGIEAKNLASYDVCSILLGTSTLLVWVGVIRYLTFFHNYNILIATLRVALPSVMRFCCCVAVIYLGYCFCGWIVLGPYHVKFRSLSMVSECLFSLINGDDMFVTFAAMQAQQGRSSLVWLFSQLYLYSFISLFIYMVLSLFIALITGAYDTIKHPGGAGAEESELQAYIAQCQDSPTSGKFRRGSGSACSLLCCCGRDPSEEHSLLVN
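Cells: TRPML1-DL, 1X Tet inducer, ~16 h at 37 degrees C/5% CO2. Dye: ABD Ca8 no-wash + quencher, 45-90 min RT. Read: 10 s baseline, compound add, 110 s agonist phase; 54-4 EC80 (4uM final), 110 s antagonist phase.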
Menin MLL FP FL: displaces fluorescein MLL peptide from human menin. Fluorescence polarization, fluorescein-MLL peptide displacement from menin. FP activity change, % at 61.4 µM. 290,000 tested, under 10 active. AID 1766; inconclusive = falling polarisation curve, or a change in total fluorescence; inactive = total fluorescence flat and polarisation flat or rising; no compound was filed as active; the % refers to the polarisation; negative = inhibition;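 note: % of control where 0% means no effect; inhibitors lower the polarisation; unlabelled MLL peptide was the positive control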
ClpP mod: qHTS Assay for Activators of ClpP. ATP-dependent Clp protease proteolytic subunit (Bacillus subtilis (strain 168)), P80244. purified B. subtilis ClpP, FRET peptide cleavage, 20 min. Potency, µM (series often up to 57.5 µM), inactives show top-dose activity change, negative = active. actives 1.9% (n = 340,000); active = well fitted falling curve with a large enough effect; inconclusive = small, poorly fitted or top-dose-only effect; inactive = no such curve, though single readings can be large or run the other way; note: potency is the fitted concentration of half-maximal effect; the source files actives as falling curves though it sought activators and does not explain the sign; nearly all actives have a fitted effect of over 65% in size; many hits overshoot -100%
Target sequence (P80244 whole entry, looked up): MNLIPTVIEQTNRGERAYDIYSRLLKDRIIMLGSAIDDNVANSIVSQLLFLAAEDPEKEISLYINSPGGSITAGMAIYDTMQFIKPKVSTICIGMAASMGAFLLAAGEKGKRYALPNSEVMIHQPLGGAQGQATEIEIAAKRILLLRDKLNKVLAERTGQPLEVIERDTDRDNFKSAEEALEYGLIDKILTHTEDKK
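Buffer: 100 mM Tris/HCl pH8, 100 mM KCl, 0.05% low protease BSA, 2.5% glycerol, 0.01% Tween-20. ClpP 10 microg/mL final; 20 min RT; delta FRET normalized to ADEP and DMSO controls.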
PINK1 modulator: PINK1 expression modulation | AID 624263 | PINK1 immunofluorescence, high-content cytometry, 24 h | actives 0.2% (n = 410,000) | Potency, µM (highest dose often 76.6 µM), without a hit: at the highest dose activation (PINK1 increase), actives largely listed as activators; active = well fitted activation curve with a large enough effect; inconclusive = small, poorly fitted or top-dose-only effect; inactive = flat fitted curve, though single readings scatter; cell line not stated here;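 note: potency is the fitted concentration of half-maximal effect; % of control where 0% means no effect; nearly all actives have a fitted effect of over 65% in size; a mitochondrial uncoupler was the plate control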
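PINK1 protein level read as immunofluorescence by microplate cytometer in a fixed, stained stable cell line after 24 h exposure to five compound concentrations, with CCCP as control.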
Sfp PPTase inh: blocks B. subtilis Sfp PPTase activity; Q9F4F7; Biochemical Sfp PPTase activity, qHTS; Potency, µM, for the others: max response, negative = inhibition, hits mostly inhibitors; actives 3.5% (n = 310,000); active = well fitted inhibition curve with a large enough effect; inconclusive = small, poorly fitted or top-dose-only effect, or another doubt; inactive = no such curve, though single readings can be large or run the other way;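 note: the enzyme is Sfp with the accession as filed and its product quenches rhodamine fluorescence; potency is the fitted concentration of half-maximal effect; 0% = enzyme reaction without inhibitor and -100% = no enzyme wells; top concentration of the series not given in the record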
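Compounds were incubated with enzyme (final 15 nM) for 15 min at room temperature before substrate addition started the reaction. Fluorescence at 525 nm excitation, 598 nm emission was recorded immediately and after 30 minutes.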
TRPML1 blocker: inhibitors of human TRPML1 channel. Q9GZU1. TRPML1-inducible cells, Ca2+ dye fluorescence, FDSS; stronger effect = lower value; inhibition of EC80 agonist-evoked calcium signal. activity change, negative = inhibition, % (test concentration not listed). actives 0.02% (n = 390,000); in the data active means activity change below about -50%; inconclusive means about -30% to -50%; inactive means above about -30%;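 note: stimulus is agonist 54-4 at its EC80 concentration; % is set by controls: 0 for no effect and ±100 for the full control effect; compound concentration not given in the record; the text of the record puts the active cut at -80%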
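Calcium fluorescence in TRPML1-DL cells induced overnight with Tet: a 110 s read after compound pin addition, then a 110 s antagonist read after challenge with 54-4 at 4 uM final (EC80).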
* hit, by the source's call; ? = inconclusive; · = not tested or not shown; & = joins results of further samples; [ ] = remark or other dose.

SMILES	TRPV1 PAM	TRPML1 agonist	Menin MLL FP FL	ClpP mod	PINK1 modulator	Sfp PPTase inh	TRPML1 blocker
On1nnc2ccc(C(F)(F)F)cc21	7	1.5	0.1	2.5%	0.5%	17%	10
Cc1cc(C(=O)COc2ccc(C#N)cc2)c(C)n1CC1CCCO1 (stereo not drawn)	·	-0.5	·	·	0.3%	·	-1
CCCn1nc(C(=O)Nc2ccc(S(=O)(=O)Nc3ncccn3)cc2)c2ccccc2c1=O	2	0.4	0.2	·	-1.1%	22%	-15
NS(=O)(=O)c1ccc(CCNC(=O)c2ccc([N+](=O)[O-])cc2[N+](=O)[O-])cc1	15	-0.6	-2.7	·	2.6%	21%	-1
O=C(NCc1ccccn1)c1cccc(S(=O)(=O)Nc2ccccc2Cl)c1	-1	0.0	·	0.4%	1.0%	·	-2
COc1ccc(CCN(Cc2cc3cccc(C)c3n3nnnc23)C(=O)c2ccncc2)cc1OC	8	·	-1.2	·	·	-12%	·
O=C(Nc1ccc2c(c1)C(=O)N(CC1CCCO1)C2=O)c1ccccc1Br (stereo not drawn)	?	0.5	3.8	22µM*	0.3%[38.3 µM]	0%	2
CC1CC(C)CN(C(=O)CCNS(=O)(=O)c2ccc3c(c2)CCC(=O)N3)C1 (stereo not drawn)	18	0.6	-1.0	1.2%	-0.5%	22%	2
Cc1ccc(C)c(-c2nnc(NC(=O)c3ccc4c(c3)OCCO4)o2)c1	·	-0.4	·	-6.7%	7.6%	·	8
COc1ccc(-c2noc(N3CCC(C(=O)Nc4ccc(OC)c(OC)c4)CC3)n2)cc1	-10	-0.2&0.4	0.3	2.2%&-12%	2.7%&1.8%	-22%	6&28
Cc1cc(-c2nc3ncccc3o2)ccc1N	12	-0.6	-0.7	-3.0%	0.0%	15%	-12
CCN(CC(=O)Nc1ccc(NC(C)=O)cc1)C(=O)c1cc(CN2C(=O)c3ccccc3C2=O)ccc1OC	17	1.2	·	-3.2%	0.4%	·	7
Nc1nc(Oc2ccc(F)cc2)c(Br)c(=O)[nH]1	-16	1.0	1.7	-1.9%	-1.1%	18%	-4
Cc1ccc(NC(=O)NCc2cccn2Cc2ccccc2)cc1F	·	3.3	·	0.5%	6.4%	·	-25
CC12CCC(C(=O)N(NC(=O)c3ccccc3O)C1=O)C2(C)C (stereo not drawn)	-10	-0.5	1.5	-29%	11%	8%	11
COc1ccc(NS(=O)(=O)/C=C/c2ccc(OC)c(OC)c2)cc1	7	0.3	-0.1	·	-0.1%	2%	2
Cn1cccc1-c1cc(C(=O)O)[nH]n1	-9	-0.6	-2.1	1.1%	3.0%	45µM*	-3
Cc1ccc(NC(=O)CSc2nnc(Cc3csc(C)n3)o2)c(C)c1	18	0.1	·	-6.0%	1.3%	·	-1
COCCN(C(=O)CCC(=O)Nc1cc(C)on1)C(C(=O)NC(C)(C)C)c1ccccc1Cl (stereo not drawn)	-25	-0.4	-8.2	·	-0.3%	8%	-8
O=S(=O)(NCCc1csc(-c2cccc(F)c2)n1)c1cc(F)ccc1F	·	2.6	·	?	3.4%	·	5
COc1ccc(NS(=O)(=O)c2ccc3oc(=O)ccc3c2)cc1	6	0.4	3.2	0.2%	1.1%	10%	-2
C=CCc1c(C)c(C#N)c2nc3ccccc3n2c1N1CCCCC1	-3	1.8	3.6	·	1.5%	10%	-1
Cc1cc2oc(=O)c(CC(=O)NCCCO)c(C)c2c2occ(C(C)(C)C)c12	-10	1.9	-1.0	3.6%	-0.1%	-15%	-3
O=C(Nc1ccccc1)N(CCc1nc2ccccc2[nH]1)C1CCCC1	-12	-0.5	0.5	-2.5%	1.0%[38.3 µM]	3%	-14
Cc1cc(C)cc(NC(=O)NCc2c(-c3ccccc3)noc2C)c1	-3	0.3	0.2	-1.4%	0.3%	2%	-14
CN(C(=O)COC(=O)C12CC3CC(CC(Cl)(C3)C1)C2)C1(C#N)CCCCC1	-6	0.1	·	0.1%	-0.2%	·	5
NC(=O)c1cc2ccccc2o/c1=N/NC(=O)c1cccc(Cl)c1	8	0.3	2.7	-1.4%	5.0%	0%	16
CCOc1ccc(OCCC(=O)N(CCC(C)C)c2c(N)n(Cc3ccccc3)c(=O)[nH]c2=O)cc1	29	-0.1	·	0.1%	12%	·	0
COc1cc(C)nc(N2CCCC(C(=O)Nc3cccc(Cl)c3Cl)C2)n1 (stereo not drawn)	-16	-1.5	4.1	-0.9%	9.5%	0%	-12
CCn1cnc2sc(C(=O)O)c(C)c2c1=O	-4	2.3	3.7	-1.1%	-2.9%	-1%	-2
CCCNC(=O)c1c(NC(=O)c2ccc(C)cc2)sc2c1CCCCC2	·	0.0	·	-1.5%	3.1%	·	10
COc1ccc(CCn2c(=N)c(C(=O)NCC3CCCO3)cc3c(=O)n4cccc(C)c4nc32)cc1OC (stereo not drawn)	-8	-0.2	2.3	·	-1.4%	17%	1
COc1ccc(CNc2nc(-c3ccco3)nn2C(=O)c2ccccc2Cl)cc1	·	3.1	·	-3.2%	1.2%	·	18
CC(=O)Nc1ccc(NC(=O)C(C)Sc2n[nH]c(-c3ccc(C)cc3)n2)cc1 (stereo not drawn)	7	0.8	·	·	0.0%	·	-2
O=C(NCCCN1CCCC1=O)c1cccc(S(=O)(=O)N2CCN(c3ccccc3)CC2)c1	5	-0.3	·	16µM*	0.7%	7%	20
COc1ccccc1CNC(=O)C(NC(=O)c1ccc(C)cc1)C(C)C (stereo not drawn)	-2	2.4	-0.3	-0.7%	0.5%	20%	-2

Record cards (already shown). Order of values: TRPV1 PAM | TRPML1 agonist | Menin MLL FP FL | ClpP mod | PINK1 modulator | Sfp PPTase inh | TRPML1 blocker
CCCNC(=O)c1c(NC(=O)c2ccc(C)cc2)sc2c1CCCCC2 is listed with · | 0.0 | · | -1.5% | 3.1% | · | 10
COc1cc(C)nc(N2CCCC(C(=O)Nc3cccc(Cl)c3Cl)C2)n1 (stereo not drawn) is listed with -16 | -1.5 | 4.1 | -0.9% | 9.5% | 0% | -12
Cc1cc(C)cc(NC(=O)NCc2c(-c3ccccc3)noc2C)c1 is listed with -3 | 0.3 | 0.2 | -1.4% | 0.3% | 2% | -14
COc1ccccc1CNC(=O)C(NC(=O)c1ccc(C)cc1)C(C)C (stereo not drawn) is listed with -2 | 2.4 | -0.3 | -0.7% | 0.5% | 20% | -2

The list continues.
SMILES	TRPV1 PAM	TRPML1 agonist	Menin MLL FP FL	ClpP mod	PINK1 modulator	Sfp PPTase inh	TRPML1 blocker
CCN(c1ccc(NC(=O)COC(=O)CCc2cc(OC)c(OC)c(OC)c2)cc1)C(C)C	-16	1.3	1.1	1.8%	1.2%	17%	-6
COc1ccccc1-c1nccc(NCc2cnc(C)cn2)n1	·	·	0.6	·	-0.1%	50µM*	·
COc1ccc(S(=O)(=O)N(CC(=O)NCCSc2ccccn2)c2ccccc2)cc1	-5	0.8	·	·	5.7%	11%	3
COc1ncnc2c1ncn2CCCN(C)CCc1ccccn1	·	0.0	·	1.9%	0.4%	·	-2
CCn1c(=O)c2cc(C(=O)NCC(OC)OC)sc2c2ccccc21	-27	1.0	8.2	3.8%	0.6%	?	10
COc1ccc(S(=O)(=O)N2CCC(C(=O)N3CCN(c4ccccc4OC)CC3)CC2)cc1	24	-1.6	0.8	-4.7%	-1.1%	0%	40
Cc1ccc(NC(=O)C2CCN(S(=O)(=O)c3c(C)noc3/C=C/N(C)C)CC2)cc1	?	0.2	·	-2.8%	2.2%	2%	-2
CC(=O)N(C)c1nc(-c2ccc(Cl)cc2)cs1	-4	0.5	-1.0	-2.3%	1.6%[38.3 µM]	13%	27
Cc1c(CN2CCC(n3nccc3NC(=O)CCc3ccccc3)CC2)cnn1C	7	0.3	-13	-0.9%	-1.2%	5%	5
COC(=O)c1cc(=O)n(-c2ccc(C(F)(F)F)cc2)[nH]1	16	0.4	4.3	·	-1.4%	-29%	22
C=CCN(C(=O)c1csnn1)C(C(=O)NC1CCCCC1)c1ccccc1 (stereo not drawn)	3	-0.4	-3.7	·	0.7%	11%	-7
Cc1ccc(C(NC(=O)Cc2cccs2)C(=O)Nc2ccc(C(C)C)cc2)cc1 (stereo not drawn)	·	-0.4	·	-1.2%	-1.7%	·	-2
CCn1cc(C(=O)NCc2ccccc2OC)c(=O)c2ccc(C)nc21	8	-0.4	0.3	1.1%	-0.6%	20%	0
CC(C)CNc1ncnc2onc(-c3ccc(Cl)cc3)c12	·	-0.1	·	-0.8%	0.6%	·	8
Cc1ccc(OCc2ccc(C(=O)NCC3CCCO3)cc2)cc1 (stereo not drawn)	-7	0.9	2.8	1.7%	-0.5%	11%	-15
COc1ccc(C2CC(=O)Oc3cc(C)c(Cl)c(C)c32)cc1 (stereo not drawn)	·	-0.1	-2.8[94.6 µM]	-9.7%	5.4%	-2%	33
CCc1ccc(N2C(=O)C3C(C2=O)N2CCCN2C3c2ccccc2)cc1 (stereo not drawn)	2	-0.4	1.0	-1.6%	0.7%	1%	-6
CC(C)(C)c1ccccc1NC(=S)NC1CCCCC1	-10	2.2	-1.2	·	2.2%	22%	-6
Cc1ccc(C(=O)OCC(=O)Nc2ccc(N(C)C)cc2)cc1NC(=O)c1ccco1	8	1.4	-3.2	-1.8%	-2.8%	11%	-3
Cc1ccc(C(=O)N(C)CCOc2ccccc2)cc1S(=O)(=O)N1CCOCC1	-11	0.0	·	1.8%	-1.3%	·	33
COc1ccc(NC(=O)c2cc(S(=O)(=O)N3CCOCC3)ccc2N2CCOCC2)cc1	-3	0.0	·	-0.5%	5.5%	17%	1
c1ccc(Oc2cccc(NC3=NCCC3)c2)cc1	-9	-0.5	2.6	-0.5%	-2.2%	-9%	-10
COc1ccc([C@H]2CC(=O)C=C(c3ccccc3Oc3ccccc3)C2)cc1	12	-0.1	·	1.8%	0.3%	·	-13
CCOC(=O)/C(=N\Nc1cc(Cl)ccc1Cl)N1CC(C)OC(C)C1 (stereo not drawn)	-2	1.4	3.0	-0.7%	4.0%	-14%	26
O=C(C[C@H]1C[C@@H]2c3cc(NC(=O)Nc4ccccc4)ccc3O[C@@H]2[C@@H](CO)O1)NCC1CC1	·	-0.6	·	2.6%	-1.5%	·	5
COc1ccc2[nH]c(=O)c(CN(C(=O)C3CCCO3)c3ccc(C)cc3)cc2c1 (stereo not drawn)	-1	0.3	-0.6	28µM*	-3.2%	10%	-2
C=CCn1c(SCc2ccccc2)nc2c1c(=O)[nH]c(=O)n2C	-9	·	-0.4	2.5%	1.2%	?	·
CCN(CC(=O)Nc1c(F)cccc1F)C(=O)c1ccc(OCc2c(C)noc2C)cc1	1	-0.5	·	0.2%	-0.3%	·	0

From PubChem BioAssay
